Screens from PubChem BioAssay.
MLL AF4-AF9 inh: blocks AF4 peptide binding to human AF9. AlphaScreen, biotin-AF4 peptide binding to FLAG-AF9. inhibition, % at 10 µM. 0.47% of 350,000 active. AID 651704;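 active = every replicate reaching a set inhibition limit, whatever the replicate mean, cut at about 25% in these data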;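 also: 0% = plate neutral control median and 100% = total signal loss; the record names both 10 and 1 µM as test concentration; the first replicate is given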
Target sequence (P42568 whole entry, looked up): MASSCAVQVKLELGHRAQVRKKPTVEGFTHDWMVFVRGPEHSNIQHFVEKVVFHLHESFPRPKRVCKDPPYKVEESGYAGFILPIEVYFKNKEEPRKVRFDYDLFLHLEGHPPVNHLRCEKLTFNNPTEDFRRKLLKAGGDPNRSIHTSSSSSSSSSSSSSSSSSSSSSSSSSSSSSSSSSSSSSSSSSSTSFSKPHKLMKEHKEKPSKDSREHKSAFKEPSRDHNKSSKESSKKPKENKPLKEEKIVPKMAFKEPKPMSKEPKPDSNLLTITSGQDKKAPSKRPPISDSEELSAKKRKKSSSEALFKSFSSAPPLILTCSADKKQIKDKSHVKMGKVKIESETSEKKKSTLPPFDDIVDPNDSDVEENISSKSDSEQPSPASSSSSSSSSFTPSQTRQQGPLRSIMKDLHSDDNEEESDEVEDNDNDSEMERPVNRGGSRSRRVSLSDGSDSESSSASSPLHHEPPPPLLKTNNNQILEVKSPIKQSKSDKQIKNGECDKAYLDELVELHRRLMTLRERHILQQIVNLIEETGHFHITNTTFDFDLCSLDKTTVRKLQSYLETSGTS
FGF22 binding: FGF22 (human) thermal shift binding. Q9HCT0. recombinant FGF22 thermal shift, SYPRO orange fluorescence; percent of sucrose octasulfate shift, DMSO zero. calls only at 9.99 µM. 1.5% of 340,000 active. AID 651658;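 active = melting point raised past a set limit in the mean and every replicate; three in four hits are not shown here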
Target sequence (Q9HCT0 whole entry, looked up): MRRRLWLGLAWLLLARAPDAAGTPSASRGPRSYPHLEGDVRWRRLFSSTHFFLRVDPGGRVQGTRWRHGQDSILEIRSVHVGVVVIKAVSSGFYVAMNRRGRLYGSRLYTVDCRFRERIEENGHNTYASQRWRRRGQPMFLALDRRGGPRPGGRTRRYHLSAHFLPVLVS
Starred values were filed as active, the others as inactive; i = inactive.

SMILES	MLL AF4-AF9 inh	FGF22 binding
COCc1cn(CC[C@H]2CC[C@H](NC(=O)Nc3ccc(C(F)(F)F)cc3)[C@@H](CO)O2)nn1	1.1	i
O=C(O)C[C@@H]1CC[C@@H](NC(=O)Nc2cc(F)ccc2F)[C@H](CO)O1	-1.8	i
Cc1noc(C)c1NC(=O)N(C)C[C@H]1Oc2ccc(NC(=O)Cn3cnnn3)cc2C(=O)N([C@@H](C)CO)C[C@H]1C	-2.9	i
Cc1ccc(S(=O)(=O)N(C)C[C@H]2Oc3ccc(N(C)C)cc3CC(=O)N([C@H](C)CO)C[C@@H]2C)cc1	5.3	i
CCCNC(=O)C[C@@H]1C[C@H]2c3cc(NC(=O)COC)ccc3O[C@H]2[C@H](CO)O1	-0.1	i
COc1ccc(S(=O)(=O)N(C)C[C@H]2OCCCC[C@H](C)Oc3ccc(NC(=O)NC4CCCCC4)cc3C(=O)N([C@@H](C)CO)C[C@@H]2C)cc1	2.5	i
CC(C)C#Cc1ccc2c(c1)O[C@H](CN(C)C(=O)Cc1ccccn1)[C@@H](C)CN([C@@H](C)CO)S2(=O)=O	2.8	i
CO[C@@H]1CN(C)C(=O)c2ccc(NC(=O)C3CC3)cc2OC[C@@H](C)N(C(=O)c2ccccc2F)C[C@@H]1C	-3.2	i
O=C1CN(S(=O)(=O)c2ccccc2)C[C@H]2[C@H](c3ccc(Br)cc3)[C@H](CO)N12	-1.7	i
O=C(Nc1ccc(F)cc1)N1CC(=O)N2[C@H](CO)[C@H](c3ccc(C4=CCCC4)cc3)[C@@H]2C1	-1.4	i
CCCC#Cc1cnc2c(c1)C(=O)N([C@H](C)CO)C[C@H](C)[C@H](CN(C)C(=O)c1cnccn1)O2	-8.0	i
COc1ccc(NC(=O)N(C)C[C@H]2OCCCC[C@@H](C)Oc3ccc(NS(=O)(=O)c4ccc(Cl)cc4)cc3C(=O)N([C@@H](C)CO)C[C@H]2C)cc1	3.1	i
C[C@@H]1CN([C@H](C)CO)C(=O)c2cc(NS(=O)(=O)c3cn(C)cn3)ccc2O[C@@H]1CN(C)Cc1ccc2c(c1)OCO2	-1.3	i
O=C([C@@H]1[C@@H](CO)[C@@H]2Cn3c(cccc3=O)[C@H]1N2S(=O)(=O)c1ccccc1F)N1CCOCC1	-2.9	i
COc1ccccc1NC(=O)N1CCCCN2[C@H](CO)[C@@H](c3ccc(C#CC4CCCC4)cc3)[C@@H]2C1	-4.4	i
COc1ccccc1CN1[C@@H]2CN(C(=O)C3CCCC3)c3ccccc3[C@@H]2[C@@H]1CO	2.5	i
N#C[C@@H]1[C@H](c2ccc(-c3ccccc3F)cc2)[C@@H](CO)N1C(=O)Cc1ccccc1	1.2	i
Cc1ccc(S(=O)(=O)N[C@@H]2C=C[C@H](CC(=O)N3CCC(Cc4ccccc4)CC3)O[C@@H]2CO)cc1	0.1	i
O=C(NCC(F)(F)F)[C@H]1[C@H](CO)[C@H]2Cn3c(cccc3=O)[C@@H]1N2CC1CCOCC1	-1.8	i
CC(C)c1cn(CC[C@H]2CC[C@H](NS(=O)(=O)c3ccc(F)cc3)[C@@H](CO)O2)nn1	-1.7	i
COCC(=O)N(C)C[C@H]1Oc2ncc(-c3ccc(C)cc3)cc2C(=O)N([C@@H](C)CO)C[C@@H]1C	-1.0	i
Cc1ccccc1S(=O)(=O)NCC[C@H]1CC[C@@H](NC(=O)C2CC2)[C@H](CO)O1	-1.1	i
COc1ccc(S(=O)(=O)N(C)C[C@@H]2Oc3ccc(NC(=O)CCC(F)(F)F)cc3C(=O)N([C@@H](C)CO)C[C@@H]2C)cc1	0.6	i
C[C@@H]1CCCCO[C@H](CN(C)Cc2ccc(C(F)(F)F)cc2)[C@@H](C)CN([C@@H](C)CO)C(=O)c2cc(N(C)C)ccc2O1	5.5	i
CC(C)[C@@H](C)/C=C/[C@@H](C)[C@H]1CC[C@@H]2[C@]1(C)CCC1[C@]23C=C[C@]2(C[C@@H](O)CC[C@]12C)N(c1ccc([N+](=O)[O-])cn1)O3 (some centres not stated)	7.2	i

One compound at a time, from the list above. Values in the order: MLL AF4-AF9 inh	FGF22 binding
COc1ccccc1CN1[C@@H]2CN(C(=O)C3CCCC3)c3ccccc3[C@@H]2[C@@H]1CO is entered as 2.5	i
CC(C)C#Cc1ccc2c(c1)O[C@H](CN(C)C(=O)Cc1ccccn1)[C@@H](C)CN([C@@H](C)CO)S2(=O)=O is entered as 2.8	i

Next entries.
SMILES	MLL AF4-AF9 inh	FGF22 binding
CC(C)NC[C@H]1[C@@H](c2ccc(-c3cccc(F)c3)cc2)[C@@H](CO)N1CC1CC1	4.1	i
C[C@@H]1CCCCO[C@@H](CN(C)Cc2ccncc2)[C@@H](C)CN([C@@H](C)CO)C(=O)c2cc(NC(=O)Nc3ccc(C(F)(F)F)cc3)ccc2O1	-1.1	i
COc1ccc(S(=O)(=O)Nc2ccc3c(c2)CC(=O)N([C@H](C)CO)C[C@@H](C)[C@H](CN(C)CC2CCCCC2)O3)cc1	-1.4	i
CCC(=O)N(C)C[C@H]1Oc2ncc(-c3ccccc3F)cc2C(=O)N([C@H](C)CO)C[C@@H]1C	-3.1	i
O=C(C[C@H]1CC[C@@H](NC(=O)Nc2ccc(C(F)(F)F)cc2)[C@@H](CO)O1)NCc1ccccn1	0.6	i
C[C@H]1CN([C@@H](C)CO)C(=O)c2cc(NC(=O)Nc3ccc4c(c3)OCO4)ccc2O[C@H]1CN(C)Cc1ccc(Oc2ccccc2)cc1	4.8	i
CC(C)NC(=O)N(C)C[C@H]1Oc2c(NS(=O)(=O)c3cn(C)cn3)cccc2C(=O)N([C@@H](C)CO)C[C@H]1C	-4.4	i
C[C@@H]1CN([C@H](C)CO)C(=O)c2cccc(NS(=O)(=O)c3ccccc3)c2O[C@@H]1CN(C)S(C)(=O)=O	-0.1	i
CC(C)NC(=O)N(C)C[C@H]1Oc2cc(C#CCN(C)C)ccc2S(=O)(=O)N([C@@H](C)CO)C[C@H]1C	-2.1	i
COc1ccc(NC(=O)N(C)C[C@@H]2Oc3ncc(-c4cccnc4)cc3C(=O)N([C@H](C)CO)C[C@@H]2C)cc1	-5.0	i
C[C@@H]1CN([C@H](C)CO)C(=O)c2cc(NC(=O)CCCN(C)C)ccc2O[C@H]1CN(C)S(=O)(=O)c1cn(C)cn1	-2.0	i
O=C(Nc1ccc(F)cc1)N1C[C@H]2[C@@H](c3ccccc31)[C@H](CO)N2C(=O)Cc1cccnc1	-0.2	i
CCCN1C[C@@H](C)[C@H](OC)CN(C)C(=O)c2cc(NC(=O)c3ccc(F)cc3)ccc2OC[C@H]1C	0.9	i
COc1ccc(CN(C)C[C@H]2OCCCC[C@H](C)Oc3ccc(NS(=O)(=O)c4cccs4)cc3C(=O)N([C@@H](C)CO)C[C@@H]2C)cc1	3.0	i
CN1c2ccc(Br)cc2[C@H]2[C@H](CCN2C(=O)c2cccc(F)c2)[C@H]1CO	0.2	i
Cc1cc2c(nc1C)CCCN2S(=O)(=O)c1cccs1	0.6	i
C[C@@H]1CCCCO[C@H](CN(C)CC2CC2)[C@H](C)CN([C@@H](C)CO)C(=O)c2cc(N(C)C)ccc2O1	13.0	i
O=C(C[C@H]1CC[C@@H](NC(=O)c2ccc3c(c2)OCO3)[C@@H](CO)O1)NC1Cc2ccccc2C1	-0.6	i
N#C[C@@H]1[C@H](c2ccc(C#Cc3cccc(F)c3)cc2)[C@@H](CO)N1C(=O)C1CCCC1	-2.8	i
C[C@H](CO)N1C[C@H](C)[C@@H](CN(C)C)Oc2ccc(NC(=O)Cc3cn(C)c4ccccc34)cc2CC1=O	2.7	i
CN1[C@@H]2Cn3c(ccc(/C=C/c4ccccc4)c3=O)[C@H]1[C@@H](C(=O)NC1CCC1)[C@@H]2CO	-4.4	i
COc1ccc2c3c([nH]c2c1)[C@H](CO)N(Cc1ccccc1F)CC31CN(C(=O)C2CCCC2)C1	0.1	i
COc1ccc(NC(=O)N(C)C[C@@H]2Oc3c(NS(=O)(=O)c4cccs4)cccc3C(=O)N([C@@H](C)CO)C[C@H]2C)cc1	0.3	i
CC(C)CC#Cc1ccc2c(c1)O[C@@H](CN(C)C(=O)C1CCC1)[C@@H](C)CN([C@@H](C)CO)S2(=O)=O	2.6	i
Cc1ccc(-c2cnc3c(c2)C(=O)N([C@H](C)CO)C[C@@H](C)[C@H](CN(C)Cc2ccccc2C(=O)O)O3)cc1	-0.9	i

4 of the entries above in order of the MLL AF4-AF9 inh value, high to low:
Molecule	MLL AF4-AF9 inh	FGF22 binding
C[C@H]1CN([C@@H](C)CO)C(=O)c2cc(NC(=O)Nc3ccc4c(c3)OCO4)ccc2O[C@H]1CN(C)Cc1ccc(Oc2ccccc2)cc1	4.8	i
O=C(C[C@H]1CC[C@@H](NC(=O)c2ccc3c(c2)OCO3)[C@@H](CO)O1)NC1Cc2ccccc2C1	-0.6	i
C[C@@H]1CCCCO[C@@H](CN(C)Cc2ccncc2)[C@@H](C)CN([C@@H](C)CO)C(=O)c2cc(NC(=O)Nc3ccc(C(F)(F)F)cc3)ccc2O1	-1.1	i
CCC(=O)N(C)C[C@H]1Oc2ncc(-c3ccccc3F)cc2C(=O)N([C@H](C)CO)C[C@@H]1C	-3.1	i

(list continues)
SMILES	MLL AF4-AF9 inh	FGF22 binding
C[C@H](CO)N1C[C@H](C)[C@H](CN(C)C(=O)NC2CCCCC2)OCCCC[C@H](C)Oc2ccc(NC(=O)NC3CCCCC3)cc2C1=O	0.9	i
Cc1noc(C)c1S(=O)(=O)N(C)C[C@@H]1OCCCC[C@H](C)Oc2ccc(NS(C)(=O)=O)cc2C(=O)N([C@H](C)CO)C[C@@H]1C	-6.6	i
CO[C@@H]1CN(C)C(=O)c2cc(NC(=O)C3CCC3)ccc2OC[C@H](C)N(Cc2ccc(F)cc2)C[C@@H]1C	4.2	i
C[C@H]1CN([C@@H](C)CO)C(=O)c2cc(NC(=O)c3ccncc3)ccc2O[C@@H]1CN(C)Cc1ccc(Oc2ccccc2)cc1	12.9	i
O=C([C@H]1[C@H](CO)[C@H]2Cn3c(cccc3=O)[C@H]2N1CC1CCCC1)N1CCCCC1	-1.6	i
Cc1ccc(S(=O)(=O)N[C@@H]2CC[C@@H](CCNC(=O)CN3CCOCC3)O[C@H]2CO)cc1	0.4	i
COc1ccc(S(=O)(=O)N(C)C[C@H]2Oc3ccc(NC(=O)CCCCCC(=O)Nc4ccccc4N)cc3CC(=O)N([C@H](C)CO)C[C@H]2C)cc1	0.2	i
CCCNC(=O)Nc1ccc2c(c1)OC[C@H](C)N(CCC(F)(F)F)C[C@@H](C)[C@H](OC)CN(C)C2=O	0.7	i
COC(=O)c1cc2c(c3c4cc(F)ccc4n(S(=O)(=O)c4ccc(OC)cc4)c13)C(=O)N(C)C2	0.0	i
Cc1ccc(S(=O)(=O)Nc2ccc3c(c2)C(=O)N([C@@H](C)CO)C[C@H](C)[C@@H](CN(C)C(=O)Nc2c(C)noc2C)O3)cc1	0.3	i
C[C@@H]1CCCCO[C@H](CN(C)Cc2ccncc2)[C@@H](C)CN([C@@H](C)CO)C(=O)c2cc(N(C)C)ccc2O1	-4.0	i
CC(C)C#Cc1cnc2c(c1)C(=O)N([C@@H](C)CO)C[C@H](C)[C@@H](CN(C)C(=O)c1cccnc1)O2	-2.8	i
CO[C@@H]1CN(C)C(=O)c2ccc(NC(=O)c3ccc(F)cc3)cc2OC[C@H](C)N(C(=O)CC2CC2)C[C@H]1C	0.0	i
Cc1ccccc1S(=O)(=O)N1C[C@H](O)COC[C@H]2O[C@H](CC(=O)N3CCC(Cc4ccccc4)CC3)CC[C@@H]21	3.4	i
CN1C(=O)c2cc(NC(=O)c3ccno3)ccc2OC[C@H]2O[C@@H](CC(=O)NCC3CC3)CC[C@@H]21	-2.3	i
COc1ccc(NC(=O)N(C)C[C@H]2OCCCC[C@@H](C)Oc3ccc(NS(=O)(=O)c4ccc(F)cc4)cc3C(=O)N([C@H](C)CO)C[C@H]2C)cc1	3.6	i
CCCNC(=O)N(C)C[C@@H]1Oc2ncc(C3=CCCC3)cc2C(=O)N([C@@H](C)CO)C[C@H]1C	-3.5	i
O=S(=O)(Cc1ccccc1)N1CCCCN2[C@H](CO)[C@H](c3ccc(-c4cncnc4)cc3)[C@H]2C1	-7.9	i
Cc1noc(C)c1NC(=O)Nc1ccc2c(c1)CC(=O)N([C@H](C)CO)C[C@H](C)[C@@H](CN(C)Cc1ccccc1)O2	-0.7	i
CN(C)C(=O)c1ccc(-c2ccc([C@@H]3[C@@H](C#N)N(C(=O)C4CC4)[C@H]3CO)cc2)cc1	-0.9	i
C[C@@H]1CN([C@H](C)CO)C(=O)c2cccc(NC(=O)c3cnccn3)c2O[C@@H]1CN(C)Cc1ccc(C(=O)Nc2ccccc2N)cc1	1.7	i
COc1ccc(NC(=O)Nc2ccc3c(c2)C(=O)N([C@@H](C)CO)C[C@H](C)[C@@H](CN(C)Cc2ccc(-c4ccccc4)cc2)O3)cc1	1.6	i
CC(=O)N1[C@H](C(=O)N(C)C)[C@@H](CO)[C@@H]2Cn3c(ccc(-c4ccccc4)c3=O)[C@@H]21	0.2	i
O=C(C[C@H]1CC[C@H]2[C@@H](COC[C@H](O)CN2C(=O)Nc2cc(Cl)cc(Cl)c2)O1)N1CCCCC1	2.0	i
CNC[C@H]1Oc2ccc(NC(=O)Nc3cccc4ccccc34)cc2CC(=O)N([C@H](C)CO)C[C@@H]1C	1.6	i
Cc1noc(C)c1NC(=O)Nc1ccc2c(c1)C(=O)N(C)[C@@H]1CC[C@@H](CC(=O)NCc3ccc(Cl)cc3)O[C@@H]1CO2	-0.6	i
C[C@H]1CN([C@@H](C)CO)C(=O)c2cccc(NC(=O)CCCCCC(=O)Nc3ccccc3N)c2O[C@@H]1CN(C)C(=O)Nc1ccccc1	2.3	i

The list is partial; rates above refer to the full screens.
